From PubChem BioAssay
CSC inhib – blocks cancer stem cells; cancer stem cell-like cells viability, luminescence; inhibition, % at 7.5 µM; 300,000 tested, 1.1% active;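 active = mean at 75% or more and at least half the replicates too; inconclusive = mean and replicates disagree; tested in HMLE shEcad cells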;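 note: 0% = median of negative and 100% = median of positive control wells; the first replicate is given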
PABP polyA inh – blocks human PABP binding to poly(A) RNA; P11940; fluorescence polarization; inhibition, % at 35 µM; 290,000 tested, 1% active; AID 2014;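 active = 50% or more with normal probe brightness, or confirmed in later tests; inconclusive = above 50% with abnormal brightness, or retests that disagree; inactive = below 50% or failed in later tests; about a fifth of its hits are not listed in these tables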;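 note: calls also rest on retests at 20 µM and on dose response follow-up; controls were probe without protein and protein plus probe with vehicle; some compounds called inactive have numbers as strong as hits; many hits fall short of the cut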
Target sequence (P11940 whole entry, looked up): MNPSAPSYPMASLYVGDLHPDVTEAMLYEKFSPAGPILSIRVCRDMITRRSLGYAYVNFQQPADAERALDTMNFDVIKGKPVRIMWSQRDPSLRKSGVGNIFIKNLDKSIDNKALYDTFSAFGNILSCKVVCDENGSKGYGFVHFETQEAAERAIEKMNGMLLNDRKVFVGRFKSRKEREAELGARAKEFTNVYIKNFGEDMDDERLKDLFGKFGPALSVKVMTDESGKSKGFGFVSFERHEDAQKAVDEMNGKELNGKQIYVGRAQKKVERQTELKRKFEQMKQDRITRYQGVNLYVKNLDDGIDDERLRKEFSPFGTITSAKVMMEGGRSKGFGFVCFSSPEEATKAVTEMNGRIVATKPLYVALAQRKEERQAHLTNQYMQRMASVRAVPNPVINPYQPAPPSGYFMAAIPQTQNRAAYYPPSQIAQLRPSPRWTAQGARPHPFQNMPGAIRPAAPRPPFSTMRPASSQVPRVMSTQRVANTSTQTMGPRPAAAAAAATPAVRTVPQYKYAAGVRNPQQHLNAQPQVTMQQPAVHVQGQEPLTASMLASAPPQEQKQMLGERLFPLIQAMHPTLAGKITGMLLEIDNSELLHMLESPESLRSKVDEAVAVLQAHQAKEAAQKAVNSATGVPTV
HIV Env fusion – blocks HIV Env-driven cell-cell fusion | HeLa-JRFL Env/CEM21 cell fusion, luciferase | inhibition, % at 12.3 µM | 360,000 tested, 1.1% active | AID 651610;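 active = mean replicate inhibition score of at least 50 and every replicate individually at or above 50; inconclusive = only one of the two criteria met; inactive = mean below 50 and not all replicates reaching 50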;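 note: 0% = plate neutral controls and 100% = maraviroc near 300 nM; one replicate is shown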
Yeast UUG start – alters start codon recognition fidelity in yeast; S. cerevisiae UUG-firefly luciferase reporter, luminescence/redox ratio; activity score, % at 18.7 µM; 350,000 tested, 0.13% active; AID 602363;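 active = replicate mean at a twofold rise or more, about +100% in these data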;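 note: firefly luciferase made from a UUG start codon reports start codon fidelity; reporter light over untreated wells divided by growth signal over untreated wells; some hits fall short of that in this replicate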
Rce1 inhib – blocks yeast Ras-converting enzyme | Q03530 | calls only | 290,000 tested, 0.27% active | AID 2563 | yeast membranes, quenched prenylated peptide cleavage fluorescence;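 active = fall in fluorescence gain of 50% or more versus controls, with final raw signal at or below 3038400; inconclusive = same 50% fall but final raw signal above 3038400; inactive = fall in fluorescence gain under 50%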;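 note: plate controls were neutral control wells for no effect and wells lacking membranes for full effect; tested at 10 µM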
Target sequence (Q03530 whole entry, looked up): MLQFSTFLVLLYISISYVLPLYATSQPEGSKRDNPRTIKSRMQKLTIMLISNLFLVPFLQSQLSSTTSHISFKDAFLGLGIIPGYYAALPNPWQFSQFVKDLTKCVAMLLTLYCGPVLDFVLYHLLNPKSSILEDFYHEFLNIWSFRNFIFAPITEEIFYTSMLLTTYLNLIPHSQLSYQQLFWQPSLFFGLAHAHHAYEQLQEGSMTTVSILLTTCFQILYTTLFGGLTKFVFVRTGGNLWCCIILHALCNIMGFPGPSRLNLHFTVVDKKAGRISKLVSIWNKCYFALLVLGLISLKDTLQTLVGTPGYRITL
MT1-MMP act inh – MT1-MMP (human) activation inhibition. HT1080 RFP-PRO-GFP cells, GFP/RFP ratio fluorescence, overnight; percent of plate control window, DMSO zero. GFP/RFP ratio change, % at 20 µM. 360,000 tested, 0.061% active. AID 651647;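 active = GFP/RFP ratio change of at least 30% with cell ATP level not reduced by more than half and red fluorescence within 50% of control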; note: strong numbers were not always called active
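Assay system – RFP-PRO-GFP reporter HT1080 cells · Compound dosing – single dose of 20 µM compound, 1% DMSO final · Incubation – overnight compound exposure at 37 °C · Measure – GFP/RFP fluorescence ratio · Benchmarks – DMSO wells and RFP-L50D-GFP cells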
eIF4H FP inh – inhibitors of RNA binding by human eIF4H; Q15056; eIF4H fluorescence polarization binding assay; inhibition, % at 35 µM; 290,000 tested, 0.94% active;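 active = 50% or more with normal probe brightness, or confirmed in later tests; inconclusive = above 50% with abnormal brightness, or retests that disagree; inactive = below 50% or failed in later tests; about a fifth of its hits are not listed in these tables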;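 note: calls also rest on retests at 20 µM and on dose response follow-up; 0% = protein and probe with vehicle and 100% = probe without protein; strong numbers were not always called active; many hits fall short of the cut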
eIF4H FP inh retest – recorded beside eIF4H FP inh, whose call it bears; inhibition, %; compound at 20 µM; confirmation average;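 mean of two retest wells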
PABP polyA inh retest – also measured in PABP polyA inh; calls as there; inhibition, %; compound at 20 µM; confirmation repeats;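 mean of two retest wells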
MT1-MMP act inh RFP – recorded beside MT1-MMP act inh, whose call it bears; RFP signal change, %; measured here: RFP expression control read;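 0 = vehicle wells; hits needed this value within 50% of zero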
The depositor's hits bear a star; i = inactive; ? = inconclusive; · = not tested or not shown; + = active, no number; & = joins results of further samples.

SMILES	CSC inhib	PABP polyA inh	HIV Env fusion	Yeast UUG start	Rce1 inhib	MT1-MMP act inh	MT1-MMP act inh RFP	eIF4H FP inh	others
O=C(C1=C(O)C(=O)N(CC2CCCO2)C1c1cccc(Cl)c1)c1ccco1 (stereo unspecified)	-6	10	7	-11	i	6	4	0
Cc1ccc(Nc2nc(C)cc(C)c2C(N)=O)cc1	-9	3	·	-7	i	3	5	6
Cc1noc(C)c1C(=O)N1CCC1(C)C(=O)NS(=O)(=O)c1ccccc1C(F)(F)F (stereo unspecified)	·	·	15	-15	·	2	7	·
CCCCC(=O)Nc1nnc(SCC(=O)NCC2CCCO2)s1 (stereo unspecified)	-13	·	-1	-16	i	2	-4	·
Cc1oc2cc(O)cc(O)c2c(=O)c1-c1ccc2c(c1)OCCCO2	·	3	·	-20	i	4	-1	-16
Cc1cc(C)c2c(CC(=O)NCc3ccco3)coc2c1	12	9	-58	-4	i	5	3	-5
CCOC(=O)c1[nH]c(C)c(C(=O)Nc2ccc(C)c(C)c2)c1C	11	4	-34	-8	i	1	-1	-15
COc1nc(N(C#N)CC(N)=O)nc(N2CCCC2)n1	-13	-2	13	-16	i	8	0	-4
CCOC(=O)c1ccc(NC(=S)N2CCC(O)CC2)cc1	-8	-7	15	9	i	-2	1	-6
COc1ccc([C@]2(C(C)C)ON(c3ccccc3C(F)(F)F)C2=O)cc1	-2	·	32	-16	·	5	3	·
OC(COc1ccccc1CNCc1cccnc1)CN1CCc2ccccc2C1 (stereo unspecified)	-2	17	-3	·	i	-4	5	7
COc1ccc(Cl)cc1N1CCN(CCNC(=O)Nc2ccccc2C)CC1	19	2	·	·	i	1	-10	-6
O=C(CN(c1ccc([N+](=O)[O-])cc1)S(=O)(=O)c1ccccc1)N1CCCCC1	·	-6	13	-11	i	-3	-1	-4
Cc1ccccc1C(=O)NCC(=O)NNC(=O)CCN1CCN(c2ccccc2)CC1	-4	-7	·	-7	i	-1	6	-2
COc1cc(/C=N/NC(=O)c2cccc3ccccc23)ccc1OCC(N)=O	-9	·	9	·	i	-2	0	·
CC(C)[C@H](NC(=O)N1c2ccccc2NC(=O)[C@@H]1C(C)C)C(=O)N1CCC[C@H]1C(=O)O	-17	-1	·	-3	i	9	3	-4
O=C(CNC(=O)c1ccccc1O)N/N=C/c1cc(Br)ccc1OC(=O)/C=C/c1ccco1	-2	?	23	·	·	·	·	?
O=C(CSc1nnc(SCc2cccc3ccccc23)s1)N/N=C/c1c[nH]c2ccccc12	46	5	37	·	i	-1	-11	-21
Cc1cccc(NC(=O)CSc2nc(COc3ccccc3)nc3ccccc23)c1C	-7	-10	·	·	i	-1	-7	-11
COc1ccc(OCC(=O)Nc2cccc(C(=O)Nc3ccccc3C(=O)O)c2)cc1	-2	3	-20	·	i	1	2	5

The closing 2 records of the section before come first, to join the parts.
SMILES	CSC inhib	PABP polyA inh	HIV Env fusion	Yeast UUG start	Rce1 inhib	MT1-MMP act inh	MT1-MMP act inh RFP	eIF4H FP inh	others
Cc1cccc(NC(=O)CSc2nc(COc3ccccc3)nc3ccccc23)c1C	-7	-10	·	·	i	-1	-7	-11
COc1ccc(OCC(=O)Nc2cccc(C(=O)Nc3ccccc3C(=O)O)c2)cc1	-2	3	-20	·	i	1	2	5
Cc1oc2ccc(O)c(CN(C)C)c2c1C(=O)c1ccccc1	-6	-6	-3	-25	·	5	3	-4
CC(C)NC(=O)/C(C#N)=C/c1ccc(N(C)C)o1	-13	?	-15	·	i	-57	1	?
CCCCCn1c(=O)c(C(=O)OCC)c(O)c2ccccc21	2	7	·	-15	i	-4	1	5
Cc1oc(-c2cccc(Cl)c2)nc1CN1CCC(C(=O)N2CCN(c3ccccn3)CC2)CC1	-23	·	·	-10	·	-1	-11	·
CCCCN(CCCNC(=O)C1CCCN(S(=O)(=O)CC)C1)Cc1ccccc1 (stereo unspecified)	·	-11	·	-16	i	3	2	-7
O=C(c1ccccc1)c1ccccc1C(=O)c1ccccc1	-2&6	7&-13	9&5	-11&-8	i	-1&3	-3&-1	5&-4
CCOc1ccc(C2C(C(=O)OC)=CN(CCOC)C=C2C(=O)OC)cc1	-4	2	·	-1	i	4	-1	-15
CC(C)Oc1ccc(N2CC(C(=O)OCC(=O)NCc3ccccc3)CC2=O)cc1 (stereo unspecified)	-6	7	·	-19	i	3	2	-6
COc1ccc(CNC(=O)CCSCc2cccc(Cl)c2)c(OC)c1	13	6	4	·	i	2	1	-8
Cc1cccc(NC(=O)NNC(=O)COc2ccc(Cl)cc2)c1	6	-5	8	·	i	2	4	2
COc1ccc(NC(=O)CC2CCCC2)cc1OC	-6	10	-4	-5	i	-1	0	0
O=C(/C=C/c1ccc([N+](=O)[O-])cc1)N1CCN(Cc2ccccc2)CC1	-2	-2	-35	7	i	4	-1	-2
O=C(Oc1ccc(-c2nnco2)cc1)N1CCOCC1	3	-18	-85	-7	i	1	2	2
CC(C)(CCc1ccccn1)C(=O)CCCc1ccccn1	·	·	6	-17	·	1	5	·
Cc1cccc(C)c1OCC(=O)NNC(=O)Nc1ccc(Cl)cc1	-11	1	·	-13	i	3	1	3
CC(C)(C)NC(=O)CSc1nnnn1C(C)(C)C	-4	-2	-41	·	i	1	4	-2
COc1ccc(NC(=O)C2CCCN2S(=O)(=O)c2cccs2)c([N+](=O)[O-])c1 (stereo unspecified)	5	·	-2	0	i	0	-5	·
Cc1ccc(C(=O)C2=C(O)C(=O)N(Cc3ccco3)C2c2cccc(Cl)c2)o1 (stereo unspecified)	-9	6	-4	-16	·	1	4	-19
O=C(CNCc1cccs1)Nc1ccc(OC(F)(F)F)cc1	4	-4	11	-18	i	4	6	12
CC(=O)c1nn(-c2cccc(C(F)(F)F)c2)c(=O)[nH]c1=O	-5	0	7	-2	i	4	-8	1
CN1CCN(C(=O)c2ccccc2NC(=O)c2sc3ccccc3c2Cl)CC1	-19	-8	5	2	i	-1	-3	-7
COc1ccc(Br)cc1C(=O)Nc1cc(C)cc(C)c1	8	1	·	-26	+	1	-1	-1
O=C1CC(N2CCC(c3nc4ccccc4o3)CC2)C(=O)N1 (stereo unspecified)	6	2	2	·	i	7	4	-4
O=C(NCc1nnc(SCC(=O)N2CCCC2)o1)c1ccc(F)cc1	8	0	1	-11	i	-6	2	-5
CCOC(=O)N1CCC(NC(=O)c2ccc3c(c2)ncn3C2CCCC2)CC1	-3	-2	·	-17	i	8	5	-2
CCN(C(=O)COC(=O)c1ccc(Cl)cc1N)C1CCCCC1	-6	-12	10	·	i	-8	-1	1
O=C(CCN1C(=O)C2C3C=CC(C3)C2C1=O)Nc1ccccc1 (stereo unspecified)	·	-12	8	·	·	4	3	-1
COc1cccc(NC(=O)N2CCc3nc(Nc4cc(Cl)cc(Cl)c4)ncc3C2)c1	·	·	17	-7	·	7	-6	·
O=C1CCCCN1CCCC(=O)N1CCCC(Nc2ccc(F)cc2)C1 (stereo unspecified)	3	6	11	-2	i	2	-1	2
Cc1ccc(/C=C/C(=O)Nc2sc3c(c2C#N)CCCC3)o1	29	-3	13	-17	i	3	-1	16
Cc1ccccc1/C=C1\CCCc2ccccc2C1=O	4	10	-350	-7	i	-3	-2	-7
CCOc1cc(NC(=S)NCc2ccccc2)c(OCC)cc1NC(=O)C(C)C	11	14	-8	-23	i	3	-1	2
Cc1nn(CCC(N)=S)c2nc(-c3cccs3)cc(C(F)(F)F)c12	·	-6	0	·	i	-5	-6	-3
Cc1c(CCOC(=O)c2cc([N+](=O)[O-])cc([N+](=O)[O-])c2)sc[n+]1CCCCS(=O)(=O)[O-]	-3	-4	6	·	i	-1	6	-8
O=C(NC1CCCC1)C(c1ccc(Cl)cc1)N1CCOCC1 (stereo unspecified)	-6	-8	6	-20	i	3	1	0
C/C(N)=C(/C#N)C(=O)COC(=O)CC1CCCC1	-1	-6	·	·	i	0	1	-2
O=C(O)C(=O)/C(=C\c1ccc(Cl)cc1)c1ccc2ccccc2n1	3	63	-146	-34	i	-11	1	9	eIF4H FP inh retest=-14;PABP polyA inh retest=13
O=C(CCN1CCN(CCO)CC1)Nc1ccc(F)c(F)c1	-7	8	-42	12	i	-1	2	-1
O=C(CN1C(=O)NC(c2ccc(F)cc2)C1=O)Nc1ccc2c(c1)OCCO2 (stereo unspecified)	-5	·	·	-15	·	8	3	·
NS(=O)(=O)c1cccc(NC(=O)c2cccc(-c3ccc(O)cc3)c2)c1	25	10	2	-34	i	3	-4	-6
O=C(Nc1cc(Cl)ccc1C(=O)O)c1ccc(CN2C(=O)c3ccccc3C2=O)cc1	-5	·	5	-14	i	-2	1	·
O=C(O)C1(c2ccccc2)CCN(S(=O)(=O)c2ccc(Br)cc2)CC1	-1	4	-2	-44	i	2	-2	11
Cc1ccc(-c2nnc(SCC(=O)Nc3cccnc3Cl)n2N)cc1	-16	·	·	-16	·	-1	3	·
O=C(O)COc1ccc(Oc2ccccc2)cc1	-8	-5	·	-15	i	4	0	-8
Cc1cc(=O)oc2cc(N3C(=O)CC(Cc4ccccc4)C3=O)ccc12 (stereo unspecified)	-1	-11	6	·	i	2	2	-10
CCc1cccc(C)c1NC(=O)CN(C)Cc1ccc(Br)cc1	-7	4	7	·	i	-6	-2	-1
COc1cc(C(=O)OC(C)C(=O)NC(=O)NC2CCCCC2)ccc1OC(F)F (stereo unspecified)	-4	·	·	-11	·	-3	3	·
COc1cc(/C=C(\C#N)c2ccccn2)ccc1OCC(=O)Nc1cccc(C(F)(F)F)c1	37	26	-15	·	i	-1	-1	-7
CCOc1cc(CNCCSc2nnnn2C)cc(Br)c1OCc1ccccc1F	21	-2	·	-12	i	-2	-11	-4
CCOC(=O)N1CCN(C(=O)C2CCN(C(=O)Nc3ccccc3)CC2)CC1	-3	·	-13	·	·	-2	0	·
COc1ccccc1C1=Nn2c(nnc2C2CCCCC2)SC1	-21	-3	·	-16	·	-3	-9	-3
COc1ccc(Nc2nc(NCc3cccs3)nc3ccsc23)cc1OC	·	·	3	-16	·	2	-15	·
O=C(Cn1nc(-c2ccccc2)ccc1=O)N1CCOCC1	-1	·	28	-35	i	0	6	·
CCc1nn2c(=O)cc(COC(=O)c3cc(Cl)c(OC)c(OC)c3)nc2s1	-15	·	3	7	·	1	-4	·
CCOC(=O)N1CCN(C(=O)CCc2ccccc2)CC1	-10	8	6	14	i	1	2	3
COc1ccc(C(=O)NNC(=O)c2ccc(C)cc2)cc1S(=O)(=O)N1CCCC1	-7	-8	5	-9	i	0	2	0
CN1CCN(S(=O)(=O)c2ccc(F)cc2)CC1	·	·	3	3	·	2	3	·
CCOC(=O)CN(C(=O)Cn1nnc2ccccc21)C(C(=O)NCCOC)c1ccccc1 (stereo unspecified)	·	-4	-10	-9	i	3	3	4
CC(C)CCNC(=O)Cc1c(C(=O)O)[nH]c2ccc(Cl)cc12	0	16	·	-7	i	1	1	-8
COCCn1nnnc1C(C(C)C)N1CCC(Cc2ccccc2)CC1 (stereo unspecified)	-2	18	·	·	i	3	-3	-14
Cc1ccc(S(=O)(=O)N2CCN(Cc3nnc(-c4c(-c5ccccc5)noc4C)o3)CC2)cc1	-9	·	·	10	·	-14	-29	·
COC(=O)c1[nH]c2ccc(C)cc2c1NC(=O)c1ccccc1[N+](=O)[O-]	23	-7	·	·	i	0	-3	-1
